High-throughput results as filed in PubChem BioAssay.
LANA-H2B inh – blockers of LANA interaction with H2A/H2B – biochemical, FP readout, HTS, primary screen; Protein LANA1 (Human herpesvirus 8 type P (isolate GK18)), Q9QR71; cell-free LANA-H2A/H2B peptide, fluorescence polarization; inhibition, % (concentration not given with the values); 320,000 compounds, 0.6% hits; in the data active = inhibition mostly above about 10%, no sharp cut-off; inactive = mostly below about 6.7%;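 also: stock transfer was 7.5 nL into about 10 µL; 0% = median of vehicle wells and 100% = median of positive control wells; one replicate is shown; the record names a cut of 25% in any replicate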
ALR H2O2 inh – inhibitors of human ALR sulfhydryl oxidase, primary screen, biochemical, H2O2 detection, HRP-luminol luminescence, single point. FAD-linked sulfhydryl oxidase ALR (Homo sapiens), P55789. purified ALR, DTT oxidation. inhibition, % (concentration not given with the values). 290,000 compounds, 3.8% hits;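 active = mean and each replicate at 75% or more; inconclusive = only one of the two met; inactive = neither met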;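 also: stock transfer was 7.5 nL into about 7.5 µL; 0% = neutral wells and 100% = wells with inactivated enzyme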
Calb FLC – C. albicans growth inhibition with fluconazole, primary screen, CaCi-2 strain, Alamar Blue fluorescence; C. albicans CaCi-2 (fluconazole-resistant clinical isolate) + fluconazole, 48 h; growth inhibition, % (no concentration beside the values); 300,000 compounds, 0.57% hits;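 active = most replicates above 75%; inconclusive = exactly half above 75%; inactive = most below 75%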;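 also: all wells also contain fluconazole at 8 µg/ml as a sub-toxic cotreatment; 0% = median of DMSO wells and 100% = median of geldanamycin control wells; wells of about 8 µL received 7.5 nL stock; the first replicate is given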
B2AR ag – beta2AR agonists driving receptor internalization, primary screen, cell-based, FAP fluorogen, flow cytometry; Beta-2 adrenergic receptor (Homo sapiens), P07550; Am2.2-beta2AR cells; reference of the scale not given here; response, % (no concentration beside the values); 340,000 compounds, 0.43% hits; AID 504454, 2011;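 active = response above a set limit, near 3 SD of response in nonfluorescent compounds, cut at about 42% in these data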;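 also: stock transfer was 100 nL into about 11 µL; a reference agonist was the positive control; negative values mostly stem from fluorescent compounds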
Target sequence (P07550 whole entry, looked up): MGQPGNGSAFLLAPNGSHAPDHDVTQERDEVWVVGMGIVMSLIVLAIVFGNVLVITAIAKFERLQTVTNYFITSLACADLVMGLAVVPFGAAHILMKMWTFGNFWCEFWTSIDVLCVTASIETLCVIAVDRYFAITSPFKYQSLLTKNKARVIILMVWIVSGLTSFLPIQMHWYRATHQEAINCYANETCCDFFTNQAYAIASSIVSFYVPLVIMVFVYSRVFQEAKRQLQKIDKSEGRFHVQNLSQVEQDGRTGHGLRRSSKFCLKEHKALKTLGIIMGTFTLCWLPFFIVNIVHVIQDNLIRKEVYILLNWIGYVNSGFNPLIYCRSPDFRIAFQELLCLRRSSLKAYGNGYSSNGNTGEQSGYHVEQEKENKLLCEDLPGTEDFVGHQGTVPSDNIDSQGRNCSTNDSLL
HNF4A DNA FP – change in binding of human HNF4A to DNA, primary screen, biochemical, fluorescence polarization, FITC-DNA | 1 h | Hepatocyte nuclear factor 4-alpha (Homo sapiens), P41235 | AID 1224865, 2016 | 360,000 compounds, 0.3% hits | activity change, % at 10 µM; in the data active = activity change above about 30%, passing the limit was not always enough;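 also: controls were the assay level and a saturating level of protein; the project sought stronger binding though the title names inhibitors; some compounds called inactive have numbers as strong as hits; positive values seem to mean higher polarization but the record does not say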
Target sequence (P41235 whole entry, looked up): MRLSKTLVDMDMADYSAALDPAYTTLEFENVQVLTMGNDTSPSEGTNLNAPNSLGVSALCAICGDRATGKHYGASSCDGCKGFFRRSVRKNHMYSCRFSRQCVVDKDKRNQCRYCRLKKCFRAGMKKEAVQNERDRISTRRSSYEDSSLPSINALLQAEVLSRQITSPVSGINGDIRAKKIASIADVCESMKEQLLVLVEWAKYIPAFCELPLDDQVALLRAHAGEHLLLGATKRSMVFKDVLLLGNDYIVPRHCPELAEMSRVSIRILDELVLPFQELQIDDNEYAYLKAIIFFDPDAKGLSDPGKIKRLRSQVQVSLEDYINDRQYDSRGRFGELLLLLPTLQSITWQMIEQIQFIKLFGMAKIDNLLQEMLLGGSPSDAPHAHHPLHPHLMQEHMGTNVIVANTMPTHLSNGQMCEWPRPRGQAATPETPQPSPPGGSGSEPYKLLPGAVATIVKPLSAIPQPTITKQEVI
Vif A3G – inhibitors of Vif binding to APOBEC3G peptide, primary screen, biochemical, TR-FRET, GST-Vif 1-94, biotin-A3G peptide, dose response retest (AID 1117319); TR-FRET GST-Vif / biotin-A3G peptide binding; higher % means a stronger effect; test concentration not given here; strong numbers were not always called active; inhibition, %; hits with a dose series show IC50 in µM; 260,000 compounds, 0.57% hits;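 active = above the screen mean plus three standard deviations and confirmed in dose response; inconclusive = results disagree or hit not tested in dose response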;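 also: Vif residues 1-94 fused to GST binding biotinylated APOBEC3G peptide 110-148; 0% = full assay without inhibitor and 100% = GST in place of GST-Vif; retest series ran down from 100 µM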
RanGTP-Impb inh – inhibitors of RanGTP-importin-beta interaction, primary screen, biochemical, FRET, CFP-Ran, YFP-importin-beta, homogeneous; cell-free CFP-Ran/YFP-importin-beta FRET ratio; inhibition, % (concentration not given with the values); 300,000 compounds, 1.1% hits;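 active = most replicates above 15%; inconclusive = exactly half above 15%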;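 also: 0% = DMSO wells and 100% = Ran loaded with GDP instead of GTP; wells of about 40 µL received 100 nL stock; the first replicate is given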
Numbers without * were called inactive; i = inactive; ? = inconclusive; / = not tested or not shown; & = joins results of further samples.

SMILES	LANA-H2B inh	ALR H2O2 inh	Calb FLC	B2AR ag	HNF4A DNA FP	Vif A3G	RanGTP-Impb inh
Cc1cccc(N(CC(=O)NC2CCCCC2)C(=O)Cn2nnc(-c3ccc(C)o3)n2)c1	-3.3	-27.9	?	1.1	1.5	11.4%	-0.5
C#CCN1C(=O)S/C(=C/c2cc(C)n(CC)c2C)C1=O	2.7	/	-4.2	6.0	1.6	11.8%	-2.5
O=C(N/N=C/c1ccc(O)cc1)c1cc(-c2ccc3c(c2)OCO3)n[nH]1	2.2	34.5	16.2	10.0	-2.0	22.5%	0.9
COC(=O)c1ccc(NC(=O)CSc2nnc(COc3c(C)cccc3C)o2)cc1	1.7	-4.5	-1.5	8.7	-10.2	17.0%	-0.8
Cc1cc(C)cc(N(C(C)C(=O)Nc2c(C)n(C)n(-c3ccccc3)c2=O)S(C)(=O)=O)c1 (centres undefined)	-2.5	-2.5	-17.7	-5.0	-0.5	74.2%&-1.2%	-2.2
COc1ccc(CCc2ccc3cc(OC)ccc3n2)cc1	/	/	/	-5.6	2.8	-1.6%	/
CC(Sc1nc(NC(C)(C)C)nc(N(C)C)n1)C(=O)Nc1ccccc1 (centres undefined)	i	1.4	-1.9	3.4	-3.0	6.7%	1.4
Cc1nc(SCC(=O)NCc2ccco2)c2c(=O)n(C)c(=O)n(CC(C)C)c2n1	3.4	-2.1	3.9	3.9	4.6	-2.6%	0.5
COC(=O)C(NC(=O)c1ccc(F)cc1)(Nc1ncc(S(=O)(=O)c2ccc([N+](=O)[O-])cc2)s1)C(F)(F)F (centres undefined)	-1.4	-17.5	14.7	5.0	0.5	10.5%	0.3
CN1/C(=C/C(=O)c2nc(S(C)(=O)=O)ncc2Cl)C(C)(C)c2ccccc21	3.5	97.8*	-16.0	48.0*	4.3	11.9%	0.1
CC(=O)NC(Cc1ccc(F)cc1)C(=O)NC1CCN(C(=O)Nc2ccc(F)cc2)CC1 (centres undefined)	5.6	-3.2	0.9	-18.2	-3.5	/	-2.9
Cc1cc(Cl)ccc1OCC(=O)n1cc(C(=O)c2cc(Cl)ccc2O)cn1	-1.3	2.7	-12.4	/	/	3.5%	-3.1
CC(C)(C)OC(=O)[C@H](Cc1ccccc1)NC(=O)c1[nH]cnc1C(=O)Nc1ccc(Cl)cc1	-1.5	-1.1	4.5	6.9	-0.6	-0.1%	-1.1
O=S(=O)(Nc1ccc2c(c1)OCCO2)c1cnc[nH]1	-4.6	/	3.8	-1.0	-0.5	66.1%	2.6
COc1ccc2c(c1)C(c1ccc(C)o1)=NNC(c1ccccc1)=N2	-0.9	41.0	-26.9	-4.3	1.1	-6.3%	5.4
Cc1cc(C)cc(NC(=S)N2CCC(c3nc4ccccc4s3)CC2)c1	-0.6	-2.6	30.3	-2.2	1.6	3.5%	2.0
O=C(CC1Sc2ncnn2C1=O)Nc1ccc(Br)cc1 (centres undefined)	6.4	53.8	-12.8	5.0	-1.2	-2.1%&-2.4%	-0.8
CCCCC(=O)Nc1ccc(NC(=O)C(C)C)cn1	1.0	-1.4	-1.6	-15.1	2.4	-2.9%	-2.3
O=c1[nH]cc(N=Cc2cc(Cl)cc(Cl)c2O)c(=O)[nH]1	6.0	-26.1	-1.5	17.8	-4.8	5.8%	4.9
COc1ccc(C(CNc2ccc(S(C)(=O)=O)cc2[N+](=O)[O-])N(C)C)cc1OC (centres undefined)	5.4	-0.2	4.3	5.1	1.2	8.2%	-4.8

The final 2 compounds of the part above open the next one.
SMILES	LANA-H2B inh	ALR H2O2 inh	Calb FLC	B2AR ag	HNF4A DNA FP	Vif A3G	RanGTP-Impb inh
O=c1[nH]cc(N=Cc2cc(Cl)cc(Cl)c2O)c(=O)[nH]1	6.0	-26.1	-1.5	17.8	-4.8	5.8%	4.9
COc1ccc(C(CNc2ccc(S(C)(=O)=O)cc2[N+](=O)[O-])N(C)C)cc1OC (centres undefined)	5.4	-0.2	4.3	5.1	1.2	8.2%	-4.8
O=C(O)CC(CC(=O)O)(C(=O)O)c1ccccc1	-1.4	-1.7	1.1	0.3	-0.9	8.3%	5.0
Cc1coc2c(C)c3oc(=O)c(CCC(=O)N4CCC(C(=O)NCCCC(=O)O)(c5ccccc5)CC4)c(C)c3cc12	5.0	15.0	-3.6	-2.1	-1.9	-11.9%	0.8
NC(=O)C1CCN(C(=O)C(Cc2ccccc2)NC(=O)c2ccccc2)CC1 (centres undefined)	i	-3.3	/	6.0	3.8	13.6%	/
CCN1CCN(c2cc(N3CCN(C(=O)c4ccco4)CC3)c3c4c(onc24)-c2ccccc2C3=O)CC1	-33.3	-11.0	-20.7	12.7	0.2	3.06µM*	9.5
CC1CCCC(C)N1S(=O)(=O)c1ccc(NC(=O)CNCC2CCCO2)cc1 (centres undefined)	-2.0	-6.3	24.1	1.3	4.5	-2.3%&0.9%	-0.6
CCOC(=O)c1c(CN2CCOCC2)n(-c2ccccc2)c2cc(Br)c(O)cc12	-5.1	3.7	17.2	4.9	-3.7	4.9%	1.6
Cc1c(NC(=O)c2ncn[nH]2)cccc1-c1nc2ccccc2s1	16.2	8.9	-5.6	-0.8	-3.1	/	1.5
C=CCNC(=O)NC(=O)COC(=O)CNS(=O)(=O)c1ccc(F)c(F)c1F	1.5	1.7	-8.0	1.4	1.2	-12.1%	0.4
O=C(COC(=O)c1ccccc1NC(=O)c1ccco1)Nc1ccc2c(c1)OC(F)(F)O2	1.1	14.7	-43.8	1.1	5.4	-1.8%	5.8
CCn1c(SCC(=O)Nc2ccc3c(c2)n(C)c(=O)n3C)nnc1-c1ccncc1	-0.9	/	7.0	-7.0	-3.3	-3.5%	0.5
Cc1c(Cl)cccc1NC(=O)CSc1ccc(-c2cccnc2)nn1	-2.4	2.1	-0.6	-17.4	4.3	-5.2%	0.0
CC#CCNCc1ccccc1	3.0	-15.9	-20.4	1.2	0.4	-8.4%	3.8
COC(=O)C1=C(CCc2ccccc2)NC(=O)NC1c1ccc(Cl)cc1 (centres undefined)	0.9	-2.3	11.9	-3.9	1.1	/	-0.6
COC(=O)[C@]1(C)N[C@H](CN(C)C(=O)Nc2ccc(OC)cc2)[C@@H]2C(=O)N(C)C(=O)[C@@H]21	0.1	/	/	-6.7	-4.3	2.1%	/
O=C(COC(=O)/C=C/c1cccs1)Nc1nc(-c2ccccc2)cs1	3.4	-8.5	9.2	1.3	-0.9	-5.9%	-0.5
CN1CCN(S(=O)(=O)c2cccc(S(=O)(=O)c3cccc(S(=O)(=O)N4CCN(C)CC4)c3)c2)CC1	-4.7	-8.1	-5.2	-3.1	-4.8	7.2%	-1.5
COC(=O)c1ccc(C(=O)OC)c(NC(=O)CN(c2ccc3c(c2)OCO3)S(C)(=O)=O)c1	3.3	-6.4	-2.1	9.9	-1.6	0.0%	8.0
O=C(Cc1ccc(-n2cccc2)cc1)NCc1ccccc1Cl	2.8	10.5	-10.7	-12.0	2.5	/	1.2
O=c1[nH]n(-c2cccc(Cl)c2)c2ncccc12	-1.7	69.9	66.5	0.0	0.3	-1.3%	0.7
COCC(=O)N1CCC(Oc2ccc(C(=O)NCCc3ncccc3C)cc2)CC1	-5.8	-4.0	0.2	-4.0	-1.3	/	5.0
COc1ccc(Oc2ccc(NC(=O)c3ccccc3C)cc2)cc1	-5.6	-3.4	-15.2	3.4	-0.1	8.6%	4.0
O=C(O)c1ccccc1C(=O)Nc1ccc(S(=O)(=O)Nc2ccc(F)cc2)cc1	1.3	/	-0.7	-4.8	-2.0	-4.3%	1.7
NC(=O)CSc1nnc(-c2ccc(S(=O)(=O)N3CCCC3)cc2)n1CC1CCCO1 (centres undefined)	-5.4	3.4	6.6	4.8	2.4	9.9%&-0.6%	-4.0
Cc1cc(C)cc(C(=O)NC(=S)Nc2cccnc2)c1	-1.6	16.2	-4.0	-1.0	-2.6	/	4.1
CCC(C(=O)NCc1ccc(F)cc1)N(Cc1ccco1)C(=O)c1snc(C(N)=O)c1N (centres undefined)	1.7	-1.0	35.0	-6.8	-1.1	1.1%&-1.2%	0.4
CCCNC(=O)c1c(CSc2ccc(Cl)cc2)noc1C(=O)NCc1ccccc1	3.6	-5.7	-9.0	-3.5	0.2	/	?
OCCNc1nc2ccccc2n1-c1ncnc2sc3c(c12)CCC3	/	/	4.4	-8.4	4.9	-0.4%	0.3
Cc1c(C=O)c2ccccn2c1C(=O)c1ccccc1	/	/	-2.2	-30.9	3.3	16.1%	-3.8
O=C(NNc1ccccc1)C(=O)N1CCCCC1	4.4	38.4	13.0	-2.5	2.4	21.8%	3.2
Cc1ccccc1Nc1nc(N)nc(CN(C)c2ccccc2)n1	28.1*	65.5	-0.8	6.3	3.4	-8.9%	2.5
O=c1[nH]nc(-c2ccc(F)cc2)cc1Cc1ccc(F)cc1	-5.8	-7.0	-2.0	11.2	-2.1	-6.8%	-4.3
Cc1ccc(S(=O)(=O)N2CCCCC2)cc1NC(=O)Cc1cccs1	-0.1	1.7	/	18.0	1.3	/	/
CC(C)Cc1nc(Nc2ccc(S(=O)(=O)N3CCCC3)cc2)c2nnn(Cc3ccccc3)c2n1	1.9	-3.6	0.6	-0.2	2.3	0.2%	?
CCOc1ccc(S(=O)(=O)N(C)c2ccc(OCC(=O)Nc3nccs3)cc2)cc1	3.4	-12.8	4.8	-3.9	0.4	10.9%	-3.8
CCCn1nnc(NC(=O)/C=C/c2cc(Br)ccc2OC)n1	-1.1	17.1	19.6	-0.7	-1.7	-3.0%	4.1
COc1ccc(C(CNC(=O)C2CC(=O)N(Cc3ccccc3)C2)N2CCOCC2)cc1 (centres undefined)	1.0	-0.7	/	-0.4	4.5	-8.0%	/
CCOC(=O)Cn1c(C)[n+](C)c2cc(Cl)c(Cl)cc21	1.2	-2.2	-17.1	0.2	-3.1	10.0%	0.9
C=CCn1c(C)nnc1SCC(=O)NC1CC1	1.2	-12.8	5.2	-5.2	-0.1	-6.6%	2.3
Fc1ccccc1CSc1nnc2ccc(-c3ccncc3)nn12	-2.6	5.1	10.1	-13.1	4.2	10.3%	-2.6
CNc1nc2ccccc2n1/N=C/c1cccc(OC)c1OC	2.0	4.4	-0.5	0.5	-3.4	0.7%	3.8
CC12CCC(=O)N1C(C(=O)Nc1ccccc1F)CS2 (centres undefined)	-7.6	-5.5	-6.1	-2.3	-0.2	-3.7%	-4.0
O=[N+]([O-])c1ccc(N2CCCCCC2)c([N+](=O)[O-])c1	-3.6	-6.8	-3.9	2.5	-1.1	-5.5%	0.6
CCOC(=O)N1CCN(C(=O)CSc2nc3ccccc3c(=O)n2-c2ccccc2)CC1	3.9	-8.0	-5.1	4.3	-3.9	-4.6%	-3.2
Cc1ccc(CN2CCN(C(=O)c3ccncc3)CC2)cc1	-2.5	-0.3	-2.9	-7.5	1.4	1.0%	-0.6
Cc1nn(Cc2c(Cl)cccc2Cl)c(C)c1NC(=O)CCCn1nc(C)c([N+](=O)[O-])c1C	-0.6	-6.7	-6.3	0.5	-1.2	4.9%	-12.6
CCOCCn1c(CN2CCN(CCO)CC2)nc2c1c(=O)n(C)c(=O)n2C	1.6	-3.9	-0.5	-11.2	-2.5	/	-0.3

The order is random. Share with any hit: about 6.3%.
